From PubChem BioAssay
ALR H2O2 inh: inhibitors of human sulfhydryl oxidase ALR; inhibition, % (concentration not given with the values); 290,000 tested, 3.8% active; AID 485317; P55789; purified ALR, DTT oxidation, H2O2 HRP-luminol luminescence;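 active means mean and each replicate at 75% or more; inconclusive means only one of the two met; inactive means neither met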;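 further: stock transfer was 7.5 nL into about 7.5 µL; 0% = neutral wells and 100% = wells with inactivated enzyme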
HNF4A DNA FP: change in binding of human HNF4 alpha to DNA | activity change, % at 10 µM | 360,000 tested, 0.3% active | HNF4a-FITC DNA binding, fluorescence polarization, 1 h; in the data active means activity change above about 30%, passing the limit was not always enough;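 further: controls were the assay level and a saturating level of protein; the project sought stronger binding though the title names inhibitors; some compounds called inactive have numbers as strong as hits; positive values seem to mean higher polarization but the record does not say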
Target sequence (P41235 whole entry, looked up): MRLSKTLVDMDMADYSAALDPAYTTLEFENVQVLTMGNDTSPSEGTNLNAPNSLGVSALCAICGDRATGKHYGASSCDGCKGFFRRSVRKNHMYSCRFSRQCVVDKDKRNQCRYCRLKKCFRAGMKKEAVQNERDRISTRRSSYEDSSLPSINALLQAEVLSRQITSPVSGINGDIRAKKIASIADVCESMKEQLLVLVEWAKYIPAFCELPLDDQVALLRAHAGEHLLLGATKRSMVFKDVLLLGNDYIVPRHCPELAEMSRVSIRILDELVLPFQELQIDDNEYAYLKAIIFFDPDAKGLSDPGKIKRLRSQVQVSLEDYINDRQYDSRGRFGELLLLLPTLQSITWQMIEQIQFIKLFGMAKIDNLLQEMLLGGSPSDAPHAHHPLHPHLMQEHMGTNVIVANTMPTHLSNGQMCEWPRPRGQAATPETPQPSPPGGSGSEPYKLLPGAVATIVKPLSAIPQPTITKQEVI
E coli growth: E. coli growth inhibition | OD600 absorbance (no concentration beside the values) | AID 1053175 | 330,000 tested, 0.21% active | Escherichia coli growth, OD600, 23 h; hits give low values;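 active means OD600 absorbance below the run mean of sample wells minus 3.6 SD, in any replicate, cut at about 0.56 in these data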;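 further: stock transfer was 300 nL into about 60 µL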
Vif A3G: inhibitors of Vif binding to APOBEC3G peptide, primary screen, biochemical, TR-FRET, GST-Vif 1-94, biotin-A3G peptide, dose response retest (AID 1117319); TR-FRET GST-Vif / biotin-A3G peptide binding; higher % means a stronger effect; test concentration not given here; strong numbers were not always called active; inhibition, %; hits with a dose series show IC50 in µM; 260,000 tested, 0.57% active;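 active means above the screen mean plus three standard deviations and confirmed in dose response; inconclusive means results disagree or hit not tested in dose response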;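 further: Vif residues 1-94 fused to GST binding biotinylated APOBEC3G peptide 110-148; 0% = full assay without inhibitor and 100% = GST in place of GST-Vif; retest series ran down from 100 µM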
rRNA inh HTS: inhibits bacterial ribosomal RNA function over humanized ribosomes; AID 720706; GFP signal change (wild-type ribosome), % (concentration not given with the values); 350,000 tested, 1.6% active; E. coli WT GFP vs humanized-ribosome RFP mutants, fluorescence, 24 h; hits give low values; DMSO median 0, no signal -100;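 active means significant combined selectivity score with lowered wild-type GFP, culture density cut under 30%, mutant RFP and density less affected; inactive means any of these conditions unmet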; further: one replicate is shown; some compounds called inactive have numbers as strong as hits
AF4-AF9 inh: MLL-AF4/AF9 protein interaction inhibition; AlphaScreen, biotin-AF4 peptide binding to FLAG-AF9; 350,000 tested, 0.47% active; P42568; inhibition, % at 10 µM;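 active means every replicate reaching a set inhibition limit, whatever the replicate mean, cut at about 25% in these data; inconclusive means mean inhibition reaches that limit but some replicates miss it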;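 further: 0% = plate neutral control median and 100% = total signal loss; the record names both 10 and 1 µM as test concentration; the first replicate is given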
Target sequence (P42568 whole entry, looked up): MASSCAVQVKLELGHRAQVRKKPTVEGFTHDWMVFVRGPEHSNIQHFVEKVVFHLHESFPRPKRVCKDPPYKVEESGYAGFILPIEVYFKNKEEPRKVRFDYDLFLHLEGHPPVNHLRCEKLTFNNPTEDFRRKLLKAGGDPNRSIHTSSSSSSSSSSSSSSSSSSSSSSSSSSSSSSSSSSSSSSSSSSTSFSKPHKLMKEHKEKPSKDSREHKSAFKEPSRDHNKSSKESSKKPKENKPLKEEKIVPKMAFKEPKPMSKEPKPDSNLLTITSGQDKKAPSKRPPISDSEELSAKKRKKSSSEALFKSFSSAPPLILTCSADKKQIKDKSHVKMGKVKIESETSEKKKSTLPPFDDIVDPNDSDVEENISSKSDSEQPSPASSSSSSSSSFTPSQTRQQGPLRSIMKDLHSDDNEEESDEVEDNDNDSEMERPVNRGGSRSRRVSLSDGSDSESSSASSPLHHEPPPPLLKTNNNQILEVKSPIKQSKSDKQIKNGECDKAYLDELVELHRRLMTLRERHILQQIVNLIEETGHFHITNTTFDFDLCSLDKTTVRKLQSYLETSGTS
FGF22 binding: binders of recombinant human FGF22 by thermal shift; Q9HCT0; SYPRO orange fluorescence; percent of sucrose octasulfate shift, DMSO zero; calls only at 9.99 µM; 340,000 tested, 1.5% active; AID 651658;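 active means melting point raised past a set limit in the mean and every replicate; inconclusive means no clear call; three in four hits are not shown here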
rRNA inh HTS OD600: further read-out of rRNA inh HTS, marked with its call; OD600 change, %; measured here: OD600 growth;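 optical density of the mix in the first replicate; 0 = DMSO median and -100 = no signal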
rRNA inh HTS RFP: recorded beside rRNA inh HTS, whose call it bears; RFP signal change, %; measured here: RFP humanized mutant strains;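 first replicate; 0 = DMSO median and -100 = no signal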
* = called active by the depositor; i = inactive; ? = inconclusive; nt = not tested or not shown; & = joins results of further samples. A portion of the library; the hit share may differ from the screen's.

SMILES | ALR H2O2 inh | HNF4A DNA FP | E coli growth | Vif A3G | rRNA inh HTS | rRNA inh HTS OD600 | rRNA inh HTS RFP | AF4-AF9 inh | FGF22 binding
COc1cc2c(cc1OC)-c1cc(NC3CCCC3)nc(=O)n1CC2 | 25.4 | 0.3 | 0.686 | -4.9% | nt | nt | nt | nt | nt
COc1ccccc1N1CCN(C(=O)COc2ccc(C)cc2Br)CC1 | 13.8 | -3.3 | 0.714 | 20.0% | nt | nt | nt | nt | nt
CC(=O)c1ccc(N2CCN(C(=O)Cc3ccccc3)CC2)c(F)c1 | -4.6 | 3.2 | 0.691 | 2.6% | -5.8 | -2.5 | -1.9 | -23.3 | i
O=C(CSc1ccccn1)N1CCNC1=O | -19.5 | 3.2 | 0.72 | -3.1% | 14.9 | 11.7 | 3.4 | 1.0 | i
CCc1nnc(NC(=O)CSc2nccn2-c2ccccc2)s1 | -7.1 | -1.6 | 0.732 | -5.0% | nt | nt | nt | nt | nt
CCOC(=O)C(=CNc1cc(C)ccn1)C(=O)OCC | 1.9 | 1.6 | 0.664 | -0.3% | 8.5 | -5.3 | -7.0 | -3.6 | i
COCC(=O)N(C)C[C@H]1[C@@H](c2ccc(-c3cccnc3)cc2)[C@H](CO)N1C(C)=O | nt | nt | nt | nt | 1.6 | 8.0 | -3.6 | -0.8 | i
C=CCNC(=O)C1CC(=O)N(c2ccc(Br)cc2)C1 (stereo not drawn) | -15.4 | -1.3 | 0.734 | 0.7% | nt | nt | nt | nt | nt
C[C@H]1CN([C@@H](C)CO)S(=O)(=O)c2ccc(C#Cc3ccccc3)cc2O[C@@H]1CN(C)C(=O)C1CC1 | nt | nt | nt | nt | -5.4 | -18.5 | 12.1 | -0.3 | i
CCOc1cc(/C=N\Nc2ccc([N+](=O)[O-])cc2)ccc1OCC(=O)Nc1ccc(C)c(C)c1 | -28.6 | 125.5 | nt | -0.6% | nt | nt | nt | nt | nt
O=C(CN1CCCCC1)NC(=O)NCc1ccccc1 | -1.5 | -2.6 | 0.631 | -6.0% | nt | nt | nt | nt | nt
C[C@H](CO)N1C[C@H](C)[C@H](CN(C)CC2CCCCC2)Oc2ccc(NC(=O)Nc3cccc4ccccc34)cc2CC1=O | nt | nt | nt | nt | -4.6 | -4.3 | -1.7 | 2.7 | i
CCOc1ccc(C(=O)NCC(=O)OC2CCOC2=O)cc1OCC (stereo not drawn) | -4.2 | 3.3 | 0.711 | 11.6% | nt | nt | nt | nt | nt
CCOc1ccc(OCC)c(C2C(C#N)=C(N)N(c3cccnc3)C3=C2C(=O)CC(C)(C)C3)c1 (stereo not drawn) | nt | 1.6 | 0.702 | 10.2% | nt | nt | nt | nt | nt
C[C@H](NC(=O)C[C@@H]1C[C@@H]2c3cc(NC(=O)Nc4ccc(C(F)(F)F)cc4)ccc3O[C@@H]2[C@H](CO)O1)c1ccccc1 | nt | nt | nt | nt | -0.2 | 5.5 | -2.2 | 0.4 | i
COCCNC(=O)CCSCc1ccccc1F | -5.8 | 2.5 | 0.685 | -1.4% | nt | nt | nt | nt | nt
COC(=O)[C@]1(C)CCC[C@@]2(C)C3CC[C@@]4(C)C[C@]3(CCC21)CC4=NO (stereo partly drawn) | -6.0 | -0.8 | 0.707 | nt | -36.2 | -52.3 | 4.2 | nt | i
CSCCC1NC(=O)N(CC(=O)Nc2cccc(S(=O)(=O)N3CCCCCC3)c2)C1=O (stereo not drawn) | 9.9 | -0.7 | 0.715 | -10.0% | -3.4 | -14.6 | 6.9 | -2.2 | i
CN1C(=O)c2cc(NC(=O)c3cccc(F)c3)ccc2OC[C@@H]2O[C@H](CC(=O)NCC3CCCCC3)CC[C@H]21 | nt | nt | nt | nt | -14.2&-7.8 | -36.8&-24.4 | 0.2&-1.5 | -2.2&-16.2 | i
CCC(C)Sc1cccc(-c2nc3cnccn3c2NC2CCCCC2)c1 (stereo not drawn) | nt | 6.9 | 0.7 | nt | 5.5 | -15.9 | 19.6 | -5.0 | i
CCOc1cccc2cc(C(=O)NCc3ccc(C)cc3)c(=N)oc12 | 27.5 | 4.6 | 0.688 | nt | 4.0 | 11.1 | 4.6 | -2.6 | i
COc1ccccc1C#Cc1ccc2c(c1)O[C@H](CN(C)Cc1cccnc1)[C@@H](C)CN([C@@H](C)CO)S2(=O)=O | nt | nt | nt | nt | -8.4 | -1.3 | 5.7 | 2.4 | i
CC(OC(=O)c1cc2sccc2n1C)C(=O)NCc1cccs1 (stereo not drawn) | -2.7 | 2.8 | 0.665 | -0.3% | nt | nt | nt | nt | nt
Cc1cc(-c2ccc(Cl)cc2)n2nc(N)nc2n1 | 0.0 | -1.9 | 0.747 | -0.2% | nt | nt | nt | nt | nt
CN(CCCOc1ccccc1Br)Cc1ccccc1 | 0.2 | -8.8 | 0.677 | 3.9% | -13.1 | 3.2 | -5.5 | -2.4 | i

The list goes on.
SMILES | ALR H2O2 inh | HNF4A DNA FP | E coli growth | Vif A3G | rRNA inh HTS | rRNA inh HTS OD600 | rRNA inh HTS RFP | AF4-AF9 inh | FGF22 binding
CCCCC(c1nc2ccccc2[nH]1)n1c(-c2ccccc2)nc2ccccc21 (stereo not drawn) | nt | 1.4 | nt | nt | 7.8 | 20.0 | -0.8 | -2.4 | i
Cc1noc(C)c1NC(=O)Nc1ccc2c(c1)C(=O)N([C@H](C)CO)C[C@H](C)[C@@H](CN(C)C(=O)Nc1cccc3ccccc13)O2 | nt | nt | nt | nt | 2.3 | 2.1 | 0.4 | -4.1 | i
C/C(=N\NC(=O)CNc1cccc2ccccc12)c1ccc(Br)s1 | -19.6 | 2.3 | nt | 7.4% | -7.2 | 1.5 | -2.3 | -1.6 | i
Cc1ccc(-n2c(-c3c(-c4ccccc4)noc3C)n[nH]c2=S)cc1 | 59.9 | 3.0 | 0.699 | 16.3% | nt | nt | nt | nt | nt
Cc1cccc(/C=C2\CCC(C3CCCC3)C2=O)c1 (stereo not drawn) | 0.0 | -3.6 | 0.706 | ? | 0.1 | -4.7 | -2.3 | 5.8 | i
O=C(NNC(=S)Nc1cccc(C(F)(F)F)c1)c1ccncc1 | nt | -2.6 | nt | -2.0% | -17.6 | -12.4 | -4.2 | 1.2 | i
Nc1[nH]nc2nc(N3CCOCC3)nc(-c3ccccc3)c12 | 46.4 | -0.6 | 0.657 | 31.4% | nt | nt | nt | nt | nt
CCCNc1nc2ccccc2c(=O)[nH]1 | 0.2 | 1.7 | 0.671 | -5.9% | 8.8 | 3.6 | 0.7 | -16.5 | i
CC1(C)Oc2cc3oc(-c4cc(O)cc(O)c4)cc3cc2CC1O (stereo not drawn) | 99.2* | 2.7 | 0.739 | nt | -53.7 | -61.6 | -21.0 | 5.7 | i
CCC1Nc2ncnc(N3CCN(c4ccccc4)CC3)c2N(Cc2ccc(Cl)cc2)C1=O (stereo not drawn) | 3.0 | 3.4 | 0.715 | nt | -7.6 | -2.8 | 3.1 | 7.0 | i
C/C(=N\n1c(C)nc2ccccc2c1=O)c1ccc(N)cc1 | -2.3 | -4.4 | nt | nt | 5.1 | 12.1 | -0.1 | 2.9 | i
COc1ccc(CCNS(=O)(=O)c2ccc(C(=O)NCc3ccco3)cc2)cc1OC | -7.3 | 2.9 | 0.681 | -0.3% | nt | nt | nt | nt | nt
COc1ccc(NC2CCCN(C(=O)CCCn3cncn3)C2)cc1 (stereo not drawn) | 98.9* | -1.3 | nt | 3.8% | -0.2 | 7.7 | -3.2 | 0.3 | i
Cc1cccc(N2CCN(C(=O)COc3cccc4c3OC(C)(C)C4)CC2)c1C | -10.0 | -1.1 | 0.681 | 2.5% | -21.2 | -23.1 | -1.6 | -1.7 | i
CCOC(=O)/C(=C/c1c2ccccc2cc2ccccc12)NC(=O)c1ccccc1 | nt | 1.1 | 0.778 | 72.4% | 0.1 | 10.1 | 2.1 | nt | nt
Fc1ccc(C2=Nn3c(nnc3-c3ccco3)SC2)cc1 | 1.9 | -0.9 | 0.653 | -3.9% | -0.6 | 1.3 | -3.5 | nt | i
Cc1cccc(C(=O)NC(=S)N2CCN(C(=S)NC(=O)c3cccc(C)c3)CC2)c1 | 3.9 | -1.7 | nt | nt | -7.0 | -0.2 | 4.0 | -3.9 | i
COc1cccc(NC(=O)NC2CCCc3ccccc32)c1 (stereo not drawn) | -1.7 | -1.8 | 0.708 | 2.1% | 21.5 | 10.4 | -0.5 | 0.1 | i
Cc1cc(C(=O)Nc2cccc3c2O[C@H](CN(C)C(=O)Nc2ccc(C(F)(F)F)cc2)[C@@H](C)CN([C@H](C)CO)C3=O)n(C)n1 | nt | nt | nt | nt | -0.9 | 0.8 | -0.7 | -12.8 | i
COc1cccc(NC(=O)N2C[C@@H](O)COC[C@@H]3O[C@H](CC(=O)NCc4ccccc4F)CC[C@H]32)c1 | nt | nt | nt | nt | 0.6 | 7.3 | 1.2 | -1.9 | i
O=C(Cn1nnc2c(cnn2-c2ccc(F)cc2)c1=O)OC1CCCCC1 | -1.3 | -0.3 | 0.747 | 19.6% | nt | nt | nt | nt | nt
CC1(C(=O)Nc2nnc(C(C)(C)C)s2)Cc2ccccc2C(=O)O1 (stereo not drawn) | -1.2 | -3.5 | 0.744 | 11.8% | nt | nt | nt | nt | nt
CCOC(=O)c1sc2nc3c(SCCC(=O)O)cc(C(=O)c4cc(OC)ccc4O)cn3c(=O)c2c1C | nt | -1.5 | 0.65 | nt | -0.5 | 4.1 | 2.6 | 2.4 | i
C[C@@H]1CCCCO[C@@H](CN(C)C(=O)Cc2ccccc2)[C@H](C)CN([C@@H](C)CO)C(=O)c2cc(NC(=O)CCCCCC(=O)Nc3ccccc3N)ccc2O1 | nt | nt | nt | nt | -3.8 | 3.7 | 1.5 | 1.2 | i
COc1ccc(S(=O)(=O)Nc2ccc3c(c2)C(=O)N([C@@H](C)CO)C[C@H](C)[C@@H](CN(C)Cc2ccc(Oc4ccccc4)cc2)O3)cc1 | nt | nt | nt | nt | 3.9 | 7.4 | 0.7 | 3.1 | i

Following part:
SMILES | ALR H2O2 inh | HNF4A DNA FP | E coli growth | Vif A3G | rRNA inh HTS | rRNA inh HTS OD600 | rRNA inh HTS RFP | AF4-AF9 inh | FGF22 binding
CCN(CC)CCCNC(=O)CN1N=C(c2ccc(OC)cc2)CCC1=O | 3.1 | 5.2 | 0.657 | 3.9% | 11.9 | 16.6 | 2.8 | -8.1 | i
CN(C)CC(C)(C)CNS(=O)(=O)c1ccc(Cl)c(Cl)c1 | -3.6&0.2 | -2.8&-0.4 | 0.667&0.638 | 3.1% | 16.4 | 14.7 | 4.4 | 0.1 | i
CC1(C)Cc2ccccc2C(c2cc3ccccc3oc2=O)=N1 | -7.1 | -3.6 | 0.703 | 18.9% | nt | nt | nt | nt | nt
Cc1cc(NC(=O)NC(=O)c2ccccc2)no1 | 1.0 | 1.1 | 0.67 | nt | 4.2 | 8.1 | 0.2 | -0.8 | i
COCC(=O)N1CC2(CN(Cc3ccccc3)C2)c2c(n(C)c3cc(OC)ccc23)[C@H]1CO | nt | nt | nt | nt | 2.6 | 1.9 | -0.8 | -3.8 | i
O=C(CCNC(=O)c1ccc(Br)cc1)Nc1ccccc1N1CCCC1 | nt | -0.1 | 0.665 | -0.9% | -0.4 | 3.8 | 1.6 | 8.4 | i
